Assay outcomes from PubChem.
KCNQ2 inh: KCNQ2 channel blockers in CHO-K1 cells – cell-based, FluxOR thallium flux, B-score, primary screen (AID 2156). O88943. 20 min; active compounds read low; only compounds with negative scores are shown here; some inactives read as strong as hits. B-score at 10 µM. actives 1.1% (n = 310,000);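 active = fluorescence ratio B-score at most minus 3 library SDs, with starting brightness B-score within 2 library SDs, cut at about -5.5 in these data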
Target sequence (O88943 whole entry, looked up): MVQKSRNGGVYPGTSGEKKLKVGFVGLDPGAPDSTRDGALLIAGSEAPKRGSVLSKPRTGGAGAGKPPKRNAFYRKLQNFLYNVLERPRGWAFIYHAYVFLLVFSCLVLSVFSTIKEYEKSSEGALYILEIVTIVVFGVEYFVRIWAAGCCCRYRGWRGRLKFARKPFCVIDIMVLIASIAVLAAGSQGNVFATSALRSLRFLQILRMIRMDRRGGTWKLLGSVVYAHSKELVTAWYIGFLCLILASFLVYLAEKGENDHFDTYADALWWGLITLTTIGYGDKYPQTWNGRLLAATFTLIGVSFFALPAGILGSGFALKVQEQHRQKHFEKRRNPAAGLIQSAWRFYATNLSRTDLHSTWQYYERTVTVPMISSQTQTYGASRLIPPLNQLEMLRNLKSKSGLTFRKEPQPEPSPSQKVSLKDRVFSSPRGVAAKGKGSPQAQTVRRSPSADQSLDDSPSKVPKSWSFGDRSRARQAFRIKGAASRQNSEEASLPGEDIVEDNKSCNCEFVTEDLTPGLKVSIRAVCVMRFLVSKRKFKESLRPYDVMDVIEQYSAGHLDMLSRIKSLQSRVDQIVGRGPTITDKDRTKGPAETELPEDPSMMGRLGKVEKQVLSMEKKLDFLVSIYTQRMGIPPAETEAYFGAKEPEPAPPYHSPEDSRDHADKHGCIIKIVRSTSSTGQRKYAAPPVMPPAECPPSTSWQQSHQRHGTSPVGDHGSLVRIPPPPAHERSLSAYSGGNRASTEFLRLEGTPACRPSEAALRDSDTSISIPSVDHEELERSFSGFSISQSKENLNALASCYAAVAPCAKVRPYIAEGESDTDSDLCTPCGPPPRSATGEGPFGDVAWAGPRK
KCNQ2 inh baseline: further read-out of KCNQ2 inh, marked with its call; B-score; measured here: initial fluorescence intensity artifact check;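 brightness before thallium and not channel activity; 0 = typical well and far values either way flag optical interference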
Starred values were filed as active, the others as inactive; i = inactive. Not all compounds are listed (hit frequency here may not be typical).

KCNQ2 inh | KCNQ2 inh baseline | SMILES
i | -0.57 | Cc1ccc(-c2nnc(NCc3nc4ccccc4[nH]3)c3ccccc23)cc1S(=O)(=O)N1CCCCC1
i | -0.87 | COc1ccc2oc(C(=O)OCC(=O)N(C)c3ccccc3)c(C)c2c1
i | -3.06 | CC(C)(C)c1ccc(S(=O)(=O)CC(O)CSc2nc3c(cc2C#N)CCCC3)cc1 (configuration not stated)
i | 0.47 | CC1CC(=O)N(c2ccc(N(C)Cc3ccccc3)c([N+](=O)[O-])c2)C1=O (configuration not stated)
i | -0.48 | COc1ccc(C(NC(=O)CC(C)C)c2c(O)ccc3ccccc23)cc1 (configuration not stated)
i | 0.88 | C[N+]1(CCCCCCC(=O)/C=N/O)CCCCCC1
i | 2.03 | COC(=O)c1ccc(CNC(=O)C2CCC(=O)N(CCCc3ccccc3)C2)cc1 (configuration not stated)
i | 0.54 | O=S1(=O)c2cccc3cccc(c23)N1Cc1ccc(-c2nnco2)cc1
i | 1 | COc1ccc(C(=O)NCc2ccccc2)cc1Br
i | 0.22 | C=CCN(C(=O)CCc1ccccc1OC)c1nc(-c2ccc(S(C)(=O)=O)cc2)cs1
-5.7* | 0.11* | COc1ccc(CN(C)C(=O)c2cc(-c3ccccc3)nc3ccc(C)cc23)c(OC)c1OC
i | 0.14 | CN1C(=S)N(c2cccnc2)C(=O)/C1=C\c1ccc(N(C)C)cc1
i | -0.02 | CN(C(=O)Cc1noc2ccccc12)c1ccccc1
i | -0.02 | Cc1cccc(CN2CCN(C3CCCC3)C(CCO)C2)n1 (configuration not stated)
i | 1.72 | Cc1cc(C)cc(N(CC(=O)NCCSCc2ccccc2)S(C)(=O)=O)c1
i | 1.92 | Cc1ccn2c(CNCC3COCCO3)c(C(=O)N3CCCCCC3)nc2c1 (configuration not stated)
i | -0.68 | O=C1CC(C2CCCO2)C(=O)N1c1cccc(Cl)c1 (configuration not stated)
i | 4.96 | N#C/C(=C\c1ccc(-c2ccc(C(=O)O)cc2)o1)C(=O)NCC1CCCO1 (configuration not stated)
i | 0.05 | O=C(CS(=O)(=O)c1ccc(Cl)cc1)NCc1ccccc1
i | 1.72 | COc1ccc(C(=O)c2c(N)sc3c2CCN(C)C3)cc1

Profiles, quoted from the list. Values in the order: KCNQ2 inh	KCNQ2 inh baseline
Cc1cc(C)cc(N(CC(=O)NCCSCc2ccccc2)S(C)(=O)=O)c1 in the list: i	1.72
CN1C(=S)N(c2cccnc2)C(=O)/C1=C\c1ccc(N(C)C)cc1 in the list: i	0.14
Cc1ccn2c(CNCC3COCCO3)c(C(=O)N3CCCCCC3)nc2c1 (configuration not stated) in the list: i	1.92

Next part
KCNQ2 inh | KCNQ2 inh baseline | SMILES
i | 0.47 | COc1ccc(OC)c(C(=O)NC2CC(C)(C)Cc3c2cnn3-c2ccccc2)c1 (configuration not stated)
i | 3.46 | COc1ccc(N(C(=O)c2cccnc2)S(=O)(=O)c2cccc([N+](=O)[O-])c2)cc1
i | 1.33 | Cc1ccc(NC(=O)c2ccc(NCCN)c([N+](=O)[O-])c2)cc1Cl
i | 0.06 | COc1ccc(NS(=O)(=O)c2ccc(N/N=C(\C)c3ccncc3)c([N+](=O)[O-])c2)cc1
i | -0.96 | CCn1c2ccccc2c2cc(/C=N/O)ccc21
i | 0.82 | CC(=O)c1cccc(NC(=S)NCCc2ccc(F)cc2)c1
i | -0.37 | Oc1ccc(-c2sc(Nc3ccccc3)n[n+]2-c2ccc(F)cc2)cc1
i | 1.26 | COc1cc([N+](=O)[O-])ccc1NC(=S)Nc1cc(C(=O)OC(C)C)cc(C(=O)OC(C)C)c1
i | 0.58 | Nc1ccc(C(=O)N(CCO)CCO)cc1
i | 1.73 | Fc1ccccc1CSc1nncn1NCc1cccs1
i | -2.26 | Cc1nn(C)c2ncc(C(=O)c3ccccc3O)cc12
i | -0.44 | CC(=O)N/N=C(/C)c1ccc(NC(=O)c2csc(C)c2C)cc1
i | -0.18 | Cc1ccc2nc(-c3sc4nc(C)cc(C)c4c3N)[nH]c2c1
i | -1.76 | COc1ccc(/C=C/c2nc(N)nc(-c3ccccc3O)n2)cc1OC
i | -0.32 | N=c1sccn1CC(=O)Nc1cccc(Oc2ccccc2)c1
i | 0.06 | CCOC(=O)C1Cn2c(nc3c(c2=O)C(C)(CC)Cc2ccccc2-3)S1 (configuration not stated)
i | -0.04 | Cc1nc(=O)c(-c2ccccc2)c(C)n1CCO
i | 0.07 | O=C(CCl)Nc1ccccc1Sc1ccccc1
i | 0.21 | O=C(CNC(=O)/C(=C\c1ccc(F)cc1)NC(=O)c1ccccc1)OCc1ccccc1
i | -1.16 | CC1(C)Oc2ccc(NC(=O)C3COc4ccccc4O3)cc2O1 (configuration not stated)
i | 1.15 | NC(=O)c1nnn(-c2ccccc2)c1N
i | -0.07 | Cc1ccccc1OCC(=O)Nc1ccccc1C(=O)NC1CC1
i | -0.1 | COc1ccc(CCNC(=O)CSc2nnc(CNc3ccc(Cl)cc3)o2)cc1OC
i | -1.49 | O=C(N/N=C/c1ccco1)c1ccncc1
i | -1.79 | Cn1nc(-c2ccccc2)c(-c2nc(-c3cccc(C(F)(F)F)c3)no2)c1Cl
i | 0.67 | Cc1ccc(-c2nnn(CC(=O)Nc3nnc(C(C)C)s3)n2)cc1
i | -0.99 | CCOC(=O)C1(CCOc2ccccc2)CCN(Cc2cccc(F)c2)CC1
i | -0.8 | CN(C(=O)CSc1nnc(C(F)(F)F)n1N)C1CCS(=O)(=O)C1 (configuration not stated)
i | 0.16 | O=C(C1CCCO1)N1CCN(C(c2ccccc2)c2ccccc2)CC1 (configuration not stated)
i | -0.81 | C(=N\N1CCN(c2ccccc2)CC1)/c1ccccc1
i | 0.78 | O=C1c2ccc(Oc3ccc4c(c3)C(=O)N(CCCO)C4=O)cc2C(=O)N1CCCO
i | 0.05 | CC(C)N(Cc1nccn1C)C(=O)c1ccc2oc(CCCc3ccccc3)nc2c1
i | 1.44 | CCCCCCCC1CC(CSc2ncn[nH]2)OC1=O (configuration not stated)
i | 0.82 | CCC(C)(C)NC(=O)C(c1ccccc1F)N(C(=O)c1ccn[nH]1)c1ccccc1 (configuration not stated)
i | 0.67 | CCC(=O)N/N=C/c1ccc(-c2ccc(Cl)cc2)o1
i | 0.23 | Cn1nc(C(F)(F)F)c(C(=O)Nc2cccc(C(F)(F)F)c2)c1SCc1ccc(Cl)cc1
i | 1.95 | COc1ccc(Cl)cc1N1C(=O)C2CCCN2C1c1ccc(F)c(F)c1 (configuration not stated)
i | 2.06 | CCN(c1ccc(C)cc1C)S(=O)(=O)c1nnc(NC(=O)C(C)(C)C)s1
i | -0.47 | Cc1cccc(COc2ccc(/C=N/NC(=O)c3nnn(-c4nonc4N)c3C)cc2)c1
i | 0.51 | CCCCCCNC(=O)c1cc(-c2ccco2)nc2ccccc12
i | 1.05 | O=C(CSCc1ccco1)Nc1cc(C(F)(F)F)ccc1N1CCOCC1
i | -0.25 | COc1ccc(-c2nc(N)ncc2-c2ccc(OC)c(OC)c2)c(O)c1
i | -0.21 | CCOc1ccc(C(Nc2cccnc2)c2cc(Cl)c3cccnc3c2O)cc1 (configuration not stated)
i | 0.04 | CC(=O)N1N=C(c2ccccc2)CC1c1ccccc1[N+](=O)[O-] (configuration not stated)
i | -0.76 | O=C(NC1=NCCS1)c1ccc(N2CCCC2=O)cc1
i | 1.72 | Cc1ccccc1OCC(=O)N(Cc1nc(-c2ccccc2)no1)C(C)C
i | -1.33 | COCCNC(=O)c1ccc(CS(=O)(=O)c2ccc(OC)cc2)o1
i | 1.18 | COc1ccc(N(CC(=O)N2CCN(c3cccc(Cl)c3)CC2)S(=O)(=O)c2c(C)noc2C)cc1
i | 0.64 | COC(=O)c1ccccc1NC(=O)c1c(O)c2c([nH]c1=O)CCCC2
i | -0.05 | Nc1[nH]c(=O)nc(Nc2ccccc2)c1N=O

Carrying on:
KCNQ2 inh | KCNQ2 inh baseline | SMILES
i | -0.13 | O=C(Nc1nnc(-c2ccncc2)o1)c1ccccc1F
i | 0.52 | O=C(CN1C(=O)CSc2ccc(S(=O)(=O)N3CCCCC3)cc21)NCc1ccccc1
i | -2.06 | CC(C(=O)NC1CCCC1)N1C(=O)c2cccc3cccc1c23 (configuration not stated)
i | 0.26 | Cn1c(=O)c(=O)n(C)c2cc([N+](=O)[O-])c(N3CCOCC3)cc21
i | 1.08 | CN1C(=O)c2ccc(NC(=O)c3ccc(N4CCCCC4)c([N+](=O)[O-])c3)cc2C1=O
i | 2.06 | Clc1cccc2sc(N3CCN(c4ccccc4)CC3)nc12
i | 1.07 | NC(=O)C1CCN(C(=O)CN(c2cccc(C(F)(F)F)c2)S(=O)(=O)c2ccccc2)CC1
i | -1.05 | Cc1ccc(Cl)c(OCCN2CCc3ccccc3C2)c1
i | -1.14 | CCOC(=O)N1CCN(Cc2nc(N)nc(Nc3ccc(Cl)cc3)n2)CC1
i | 1.16 | CCC(c1nnnn1C(C)(C)CC)N1CCN(c2ccccc2F)CC1 (configuration not stated)
i | -0.01 | Cc1ccc(NC(=S)Nc2cccc3cnccc23)c(C)c1
i | -0.02 | CC(C)C[C@H](NC(=O)OC(C)(C)C)C(=O)N/N=C/C1=Cc2ccccc2OC1C (some centres not stated)
i | 2.05 | CC1=C(C(=O)Nc2ccccn2)C(c2ccccc2Cl)NC(=S)N1 (configuration not stated)
i | 0.56 | O=C(CSc1nnc(NC(=O)C2CC2)s1)Nc1ccccc1
i | 0.15 | Cc1ccc2cccc(OCC(=O)Nc3ccc4c(c3)OCO4)c2n1
i | -0.23 | CCc1ccc(-c2csc3[n+]2CCN3C(C)=O)cc1
i | 0.24 | COc1ccc(S(=O)(=O)Nc2ccccc2C(=O)NCc2cccnc2)cc1OC
i | 1.22 | COc1ccc(C(=O)NCCc2nnc3ccc(SCC(=O)N4CCCC4)nn23)cc1
i | -0.32 | CC(C(=O)Nc1ccc2c(c1)OCCO2)N1Cc2ccccc2C1=O (configuration not stated)
i | 2.21 | COc1cc(NC(=O)c2noc3c2CCC3)c(OC)cc1Cl
i | -0.4 | COc1ccc(F)cc1S(=O)(=O)N1CCCC(C)C1 (configuration not stated)
i | 3.15 | O=C(NCCCn1ccnc1)c1ccc(NS(=O)(=O)c2cccc([N+](=O)[O-])c2)cc1
i | -0.99 | Cc1ccc2c(c1)COc1c3ccc(C(=O)N4CCCCC4)cc3nn1-2
i | 0.03 | O=C(CN1CCCC1)OCCCC1CCCCC1
i | 0.09 | Cc1cccc(-n2c(SCc3cc(=O)n4ccsc4n3)nc3ccccc32)c1
i | -0.01 | Cc1ccsc1C(=O)OCC(=O)NCCCc1ccccc1
i | -1.03 | CCC1(C)Cc2c(sc3nc(SC)[nH]c(=O)c23)CO1 (configuration not stated)
i | -0.54 | CN1C(=O)C(C)(C)c2cc(S(=O)(=O)N3CCN(c4cccc(Cl)c4)CC3)ccc21
i | 2.67 | O=C(Nc1ccon1)c1ccc(Cl)s1
i | 0.5 | COc1ccc2[nH]c(N=Nc3ccccc3C)c(O)c2c1
i | -0.32 | CCCc1cc(C(=O)OC)c(NC(=O)OCC)s1
i | 0.78 | Cc1ccc(S(=O)(=O)c2cc3ccccc3oc2=Nc2ccc3c(c2)OCO3)cc1
i | 0.64 | O=C(Nc1cc(F)ccc1F)C1CCCN1S(=O)(=O)c1cccc2nsnc12 (configuration not stated)
i | 5.37 | COc1cc(C2C(C#N)=C(N)Oc3cc(N(C)C)ccc32)cc2c1OCO2 (configuration not stated)
i | 0.27 | O=C(CCn1c2c(c3ccccc31)CCCC2)NNC(=O)c1ccc([N+](=O)[O-])cc1
i | -2.66 | COc1ccccc1CN1C[C@@H]2C[C@@H](c3ccc4nsnc4c3)N3CCC[C@@]23C1=O
i | 0.42 | CC1CCN(C(=S)c2cn(Cc3ccccc3F)c3ccccc23)CC1
i | -1.26 | CCN(CC(=O)Nc1cccc(C(C)=O)c1)S(=O)(=O)c1ccc(C)cc1
i | -0.96 | CCC(C)(C)NC(=O)C(c1ccc(OC)cc1)N(C(=O)CCC(=O)Nc1cc(C)on1)c1ccc(OC)cc1OC (configuration not stated)
i | 1.64 | Cc1cc(C)nc(Nc2cc([N+](=O)[O-])ccc2C)n1
i | 1.13 | CC(C)(C)C(=O)N1CCN(c2ncccc2C(F)(F)F)CC1
i | -0.27 | Cc1cc(C(=O)CSc2nc(N)cc(=O)[nH]2)c(C)n1Cc1ccco1
i | 0.99 | COc1ccccc1NS(=O)(=O)c1cccc(C(=O)OCc2nc3ccccc3s2)c1
i | 1.92 | OC(CNCc1ccccc1)(c1ccccc1)c1ccccc1
i | 0.03 | COCCNS(=O)(=O)c1cc(OC)c(Cl)cc1Cl
i | 0.01 | O=C(COc1ccccc1F)NC12CC3CC(CC(C3)C1)C2
i | -0.05 | COc1ccccc1NC(=O)CCn1cccc1

Structures shown so far with two or more sulfur atoms, in the order listed:
KCNQ2 inh | KCNQ2 inh baseline | SMILES
i | -3.06 | CC(C)(C)c1ccc(S(=O)(=O)CC(O)CSc2nc3c(cc2C#N)CCCC3)cc1 (configuration not stated)
i | 0.22 | C=CCN(C(=O)CCc1ccccc1OC)c1nc(-c2ccc(S(C)(=O)=O)cc2)cs1
i | 1.72 | Cc1cc(C)cc(N(CC(=O)NCCSCc2ccccc2)S(C)(=O)=O)c1
i | 1.73 | Fc1ccccc1CSc1nncn1NCc1cccs1
i | -0.8 | CN(C(=O)CSc1nnc(C(F)(F)F)n1N)C1CCS(=O)(=O)C1 (configuration not stated)
i | 2.06 | CCN(c1ccc(C)cc1C)S(=O)(=O)c1nnc(NC(=O)C(C)(C)C)s1
i | 0.52 | O=C(CN1C(=O)CSc2ccc(S(=O)(=O)N3CCCCC3)cc21)NCc1ccccc1
i | 0.56 | O=C(CSc1nnc(NC(=O)C2CC2)s1)Nc1ccccc1
i | 0.09 | Cc1cccc(-n2c(SCc3cc(=O)n4ccsc4n3)nc3ccccc32)c1
i | -1.03 | CCC1(C)Cc2c(sc3nc(SC)[nH]c(=O)c23)CO1 (configuration not stated)
i | 0.64 | O=C(Nc1cc(F)ccc1F)C1CCCN1S(=O)(=O)c1cccc2nsnc12 (configuration not stated)
i | 0.99 | COc1ccccc1NS(=O)(=O)c1cccc(C(=O)OCc2nc3ccccc3s2)c1
